Screening results from PubChem BioAssay.
BasE inh = BasE siderophore enzyme inhibitors, primary screen, biochemical, Acinetobacter baumannii ATCC 17978, fluorescence polarization. purified BasE, fluorescence polarization binding displacement. inhibition, % (no concentration beside the values). 84,000 tested, 0.1% active. AID 485350, 2010;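 active = both replicates above 25% with normal brightness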;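 also: 0% = negative plate control signal and 100% = positive plate control signal; stock transfer was 100 nL into about 30 µL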
LANA-nucl inh = inhibitors of KSHV LANA-nucleosome binding, primary screen, biochemical, fluorescence polarization, FITC-LANA1-23, chicken nucleosomes | 51,000 tested, 0.3% active | FITC-LANA1-23 / chicken nucleosome fluorescence polarization; hits give low values | z-score (test concentration not listed);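 active = both repeat wells score below -2 in polarization z-score versus plate sample wells, excluding overly bright wells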;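 also: 100 nL library stock added to about 30 µL; numbers are from one replicate; some results filed as inactive read as strong as hits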
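Material: Purified chicken nucleosomes with FITC-labelled LANA N-terminal peptide (1-23) | Reagent: 50 nM FITC-LANA1-23 probe | Medium: TEN-BT buffer, pH 7.5 | Times: 10–45 min incubation at room temperature | Detection: Fluorescence polarization | Replication: Duplicates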
Active calls of the source: *; / = no result given; & = joins results of further samples. Some of the compounds tested; count on the stated rates, not on these rows.

SMILES	BasE inh	LANA-nucl inh
O=C1CCC(C(=O)NC(c2ccccc2)c2ccccc2)=NN1	3.3	/
O=S(=O)(n1nccc1-c1sccc1Cl)C(F)(F)F	/	-0.572
COc1ccc(NC(=O)CN(C)C2CCS(=O)(=O)C2)cc1 (stereo not given)	2.7	/
Cc1ccc(S(=O)(=O)N2CCC(On3nnc4ccccc43)CC2)cc1	2.1	-1.53
Cc1ccc(-n2nnc(C(=O)N3CCCCC3)c2N)cc1	0.1	-0.212
CCc1ccccc1NC(=O)N1CCC(NC(=O)C(C)(C)C)CC1	1.8	-0.868
CCn1ncc(NC(=S)NCc2ccco2)c1C(N)=O	1.9	-0.068
CN(C)C(CNC(=O)c1ccc2c(c1)OCO2)c1ccco1 (stereo not given)	-1.1	/
COC(=O)/C=C/S(=O)(=O)c1ccc2ccccc2c1	1.1	0.531
O=c1cc(O)c2ccccc2[nH]1	3.1	-0.26
O=C(COC(=O)c1cc(-c2ccco2)nc2ccccc12)c1ccccc1	2.3	/
Cc1sc2ncn(CC(=O)NC3CCCCCC3)c(=O)c2c1S(=O)(=O)N1CCN(c2ncccn2)CC1	-0.2	0.236
Cc1cc(Oc2ccc(=O)n(C)n2)nc(=S)[nH]1	4.5	-0.306
O=c1cc(CSc2n[nH]c(=O)n2C2CC2)c2ccc(O)cc2o1	-0.7	-1.54
O=C(O)CCC1=NN2C=Nc3sc4c(c3C2NC1=O)CCCC4 (stereo not given)	2.3	-0.608
CN(C)c1ccc(C(CNC(=O)c2ccc3c(c2)OCO3)N2CCc3ccccc32)cc1 (stereo not given)	-1.4	0.0805
CCN(C(=O)CS(=O)(=O)c1ccccc1)c1ccccc1C	3.3	-0.964
CCCN(CC(=O)Nc1ccccc1OC)C(=O)c1ccncc1	-1.5	/
CC(C)C(NC(=O)C1CCCCC1)C(=O)O (stereo not given)	3.1	-1.5
CCCCN(C)S(=O)(=O)c1cc(-c2cc(C(=O)OCC)no2)ccc1OC	-0.8	0.276

The list continues.
SMILES	BasE inh	LANA-nucl inh
CC1CCCCN1C(=O)Cn1c(=O)cnc2ccccc21 (stereo not given)	1.2	/
CCc1nnc(NC(=O)c2ccc(N3C(=O)C4C5C=CC(C5)C4C3=O)cc2)s1 (stereo not given)	1.5	/
Cc1ccccc1-n1ccc(=O)[nH]c1=O	0.3	/
O=C(NCCN1CCN(c2cccc(Cl)c2)CC1)C1c2ccccc2C(=O)N2CCc3ccccc3C12 (stereo not given)	0.3	-0.099
O=C(NCCC1=CCCCC1)c1cccc2c1C(=O)N(C1CCCCC1)C2	1.3	-0.469
CC(=O)Nc1cc2c3c(c1)CCC(=O)N3CCC2	0.9	-0.996
O=C(Nc1ccc2oc(-c3cc(I)ccc3Cl)nc2c1)c1ncn[nH]1	2.7	-0.0005
CC1CC(C)CN(C(=O)CSC2=NCCS2)C1 (stereo not given)	1.0	/
O=C1CCC(OC(=O)c2ccccc2)CC1	0.6	-0.778
Cc1cc(C)c2c(n1)sc1c(Cl)ncnc12	0.4	-0.752
CC(C(=O)O)c1ccc2c(c1)[nH]c1ccc(Cl)cc12 (stereo not given)	4.1	-0.263&-0.349
CN1N=C2c3ccccc3CCC2C1c1ccc(C#N)cc1 (stereo not given)	3.5	/
CNS(=O)(=O)c1cc(-c2nnc(Nc3ccc4c(c3)OCO4)c3ccccc23)ccc1C	1.8	/
CN1CCN(CC(C)(C)N)CC1	4.8	-0.246
Cc1cc(-c2ccc(S(=O)(=O)N3CCCCC3)s2)on1	-0.4	/
Cc1ccc2c(c1)N(CC(=O)O)C(=O)CO2	0.5	0.304
O=C(O)c1ccc(OC2CSC2)cc1	1.7	/
C=CCNCc1cccs1	1.1	/
C=CCN1C(=O)C2C3C=CC(C3)C2C1=O (stereo not given)	-0.1	/
COc1ccc(C(=O)COC(=O)c2ccccc2SCC(=O)N(C)C)cc1F	-3.5	/

Later entries.
SMILES	BasE inh	LANA-nucl inh
CCOC(=O)Nc1ccc2c(COC(=O)c3nccnc3N)cc(=O)oc2c1	-2.8	/
COc1ccc(CNC(=O)Cc2c(C(=O)O)[nH]c3ccc(Cl)cc23)c(OC)c1	4.2	-0.212
Nc1ncnc2c1ncn2[C@@H]1O[C@H](CO)[C@@H](O)[C@H]1O	-1.6	0.162&2.08
COc1ccc(/C=C(\C#N)S(=O)(=O)c2ccc(C)cc2)cc1Cl	/	1.37
CCn1c(SC(C)c2nc3ccccc3s2)nnc1-c1cccc(S(=O)(=O)N2CCCC2)c1 (stereo not given)	-1.1	/
Nc1ccc(Oc2ccc3c(c2)OCO3)cc1	1.1	0.0565
Cc1ccccc1NC(=O)CN1CCC(n2nnc3ccccc32)CC1	2.5	0.622
Cc1[nH]n(-c2ccccc2)c(=O)c1C(=O)Nc1ccc(Cl)cc1	12.3	/
O=C(c1ccc(-c2nc3ccccc3s2)o1)N1CCCCCC1	-4.6	/
CCCn1nc(NS(C)(=O)=O)c2cc3ccccc3nc21	0.9	-0.978
COc1ccc(NC(=O)CN2CCC(n3c(C)nc4cc(F)ccc43)CC2)c(OC)c1	0.4	-0.003
CCOC(=O)COn1c(C)c(C(=O)OCC)c2c3nonc3ccc21	-0.3	0.162
CC(=O)NC1C(=O)N=C(SCC(=O)Nc2c(C)cccc2C)NC1=O (stereo not given)	0.9	0.315
Cc1ccc(C)c(OC(=O)CCN2C(=O)c3ccccc3C2=O)c1	-4.9	2.73
CCn1c(=O)c(=O)[nH]c2cc(C(=O)NC3CC3)ccc21	-1.5	/
Cc1ccc(N(C(=O)c2ccccc2C)S(=O)(=O)c2ccc(Cl)cc2)cc1	-1.1	/
Cc1ccc(C(=O)N2CCN(c3ccccc3)CC2)cc1	-2.7	2.16
O=C(C1CCCN(c2ncnc3c2nc2n3CCCCC2)C1)N1CCCCCC1 (stereo not given)	-0.2	0.712
Cc1ccc(-c2nc3ccc(Cl)cn3c2Nc2ccc3c(c2)OCO3)o1	0.2	0.18
NS(=O)(=O)c1ccc(NNC(=O)C2CCN(C(=O)OCc3ccccc3)CC2)cc1	-2.5	0.594

Full records as entered above. Order of values: BasE inh, LANA-nucl inh
CCOC(=O)COn1c(C)c(C(=O)OCC)c2c3nonc3ccc21 in the list: -0.3, 0.162
CC(=O)NC1C(=O)N=C(SCC(=O)Nc2c(C)cccc2C)NC1=O (stereo not given) in the list: 0.9, 0.315

Next part
SMILES	BasE inh	LANA-nucl inh
O=C(C1CCN(c2ncc(C(F)(F)F)cc2Cl)CC1)N1CCCc2ccccc21	4.9	/
COc1ccc(-c2nc(CSCC(=O)O)c(C)o2)cc1	1.6	2.05
CC(Oc1cccc(Cl)c1)C(=O)N1CCCCC1 (stereo not given)	1.5	-0.407
Cc1nc(NC(=O)COC(=O)c2cccn2C)c(Cl)cc1Cl	-1.8	/
Cn1nc(C(=O)NCc2ccccc2)cc1C(=O)NCc1ccccc1	1.8	-1.61
COc1ccc(-c2nnn(CN(C)Cc3sccc3C)n2)cc1OC	-0.4	/
O=C(COc1cccc2c1CCN(Cc1ccccc1)C2=O)N1CCCCCC1	0.0	-0.71
Cc1ccccc1C1C2=C(CCCC2=O)Nc2c1c(=O)[nH]c(=O)n2-c1ccccc1 (stereo not given)	-0.6	0.349
Cc1ccc(C(=O)NC(=S)N2CCNC(=O)C2)cc1I	-2.3	-1.05
Cc1occc1-c1nnc(SCC(=O)N(C)C2CCCc3ccccc32)n1C (stereo not given)	0.2	/
CC(C)C(=O)Nc1ccc(-c2nc3cc(C(C)C)ccc3o2)cc1	1.2	-0.493
O=C(c1cc2ccccc2oc1=O)N1CCN(Cc2ccc3c(c2)OCO3)CC1	2.1	-0.186
O=C(NCc1cccc(C(F)(F)F)c1)c1ccccn1	1.9	/
COc1ccc(C2CC(=O)C(C=NCCN3CCNCC3)=C(O)C2)cc1 (stereo not given)	-2.9	0.427
CCCn1nc(C(=O)N(C)Cc2ccc(OC)cc2OC)c2ccccc2c1=O	-4.0	/
O=c1cc(-c2ccccc2)oc2cc(Cl)cc(Cl)c12	0.3	/
C/C(=N\O)c1cc(-c2ccccc2)c(C(F)(F)F)s1	1.1	/
C=CC[C@H]1Cc2ccccc2[C@H](CC=C)N1	0.8	/
CCCn1c(SCC(N)=O)nnc1C(C)C	2.3	-0.968
CNC(=O)NC(=O)CN1CCCc2cc(C)ccc21	3.2	/

Ordered by count of non-hydrogen atoms (falling): part of the list above
SMILES	BasE inh	LANA-nucl inh
CCCn1nc(C(=O)N(C)Cc2ccc(OC)cc2OC)c2ccccc2c1=O	-4.0	/
CC(Oc1cccc(Cl)c1)C(=O)N1CCCCC1 (stereo not given)	1.5	-0.407
CCCn1c(SCC(N)=O)nnc1C(C)C	2.3	-0.968

Quoted from the listing.
COC(=O)/C=C/S(=O)(=O)c1ccc2ccccc2c1 in BasE inh = 1.1
C/C(=N\O)c1cc(-c2ccccc2)c(C(F)(F)F)s1 in BasE inh = 1.1
O=C(NCCC1=CCCCC1)c1cccc2c1C(=O)N(C1CCCCC1)C2 in LANA-nucl inh = -0.469
CN(C)C(CNC(=O)c1ccc2c(c1)OCO2)c1ccco1 (stereo not given) in BasE inh = -1.1
C=CCN1C(=O)C2C3C=CC(C3)C2C1=O (stereo not given) in BasE inh = -0.1

(list continues)
SMILES	BasE inh	LANA-nucl inh
COc1ccc(/C(COc2ccccc2O)=N\O)cc1	1.7	/
Nc1nc(-c2ccc3c(c2)CC(=O)N3)cs1	3.2	/
O=C(O)CSc1nc(-c2ccccc2)nc2c1CCCC2	1.1	0.861
Cc1cnc2c(c1)N1CCC2CC1	5.3	-0.615
Cc1ccccc1NC(=O)c1ccc(CN2CC(=O)N3CCCCC3C2=O)cc1 (stereo not given)	0.5	0.343
O=C(CCN1C(=O)c2ccccc2C1=O)OCc1ccc(F)cc1	1.5	-0.247
Cc1c(N=C2SC(CC(=O)O)C(=O)N2/N=C/c2ccccc2O)c(=O)n(-c2ccccc2)n1C (stereo not given)	7.5	/
N#CC1=C2SCN(Cc3ccccc3)CN2C(=O)CC1c1cccs1 (stereo not given)	-1.4	-0.439
CC(C)C(=O)OCc1cc(=O)n2cc(Br)ccc2n1	-1.0	/
Cc1ccc2c(c1)nc(C(=O)O)n2CCO	-1.0	-0.248
CS(=O)(=O)N1CCC(C(=O)NCC2CCCO2)CC1 (stereo not given)	1.7	-1.11
Cc1ccc2nc(COc3ccccc3C#N)cc(=O)n2c1	0.8	/
Cc1ccc(S(=O)(=O)N(C)C)cc1C(=O)OCC(=O)c1cc2c3c(c1)CC(=O)N3CCC2	-1.4	/
Cc1cc(C)c2c(c1NC(=O)N1CCCC1)CC(C)(C)C2=O	/	2.39
CC(=NCC1CCCO1)C1=C(O)CC(C)(C)CC1=O (stereo not given)	3.1	-0.323
O=C(COc1ccc(F)cc1Cl)NCC1CN(Cc2ccccc2)CCO1 (stereo not given)	0.8	/
CCC(=O)Nc1ccc2c(c1)nc(CCNC(=O)c1ccccc1)n2C	-3.2	0.851
O=C1c2ccccc2N2C(=O)CCC2(C(=O)Nc2ccc(N3CCCCC3)cc2)N1Cc1ccccc1 (stereo not given)	2.9	/
NC(=O)CN1C(=O)C(O)(CC(=O)c2ccc(Cl)s2)c2ccccc21 (stereo not given)	-3.2	-0.157
C=CCN1C(=O)/C(=C/c2cc(C)n(-c3ccc(CC)cc3)c2C)SC1=S	-5.0	/

Following part:
SMILES	BasE inh	LANA-nucl inh
CC(=O)OC(C(=O)NCc1ccc(F)cc1)c1ccccn1 (stereo not given)	1.7	0.415
CC1=CC(=O)N(c2ccc(C)cc2)C1c1ccc(Cl)cc1 (stereo not given)	-2.8	1.85
CC(C(=O)O)N1C(=O)NC2NC(=O)NC21 (stereo not given)	1.1	-0.342
Cc1nnc(SCC(=O)n2c3c(c4c2CCCC4)CCCC3)n1Cc1ccccc1	-0.1	-0.304
O=C(NC1CCCCCC1)N1CCOCC1	1.3	-1.2
O=P(O)(CN1CCOCC1)C1CCCCC1O (stereo not given)	0.9	-0.917
CCn1c(CCNC(=O)c2ccccc2OC)nc2ccccc21	0.8	-0.904
C/C(=N\N=C(N)N)c1ccc(C)cc1	-2.1	-1.06
O=C(O)CCP(=O)(O)CN1CCCCC1	1.2	-0.237
COc1ccc(NC(=O)c2ccco2)c(NC(=O)c2ccc(I)cc2)c1	-3.3	-1.09
CCCn1c(=N)c(C(N)=O)cc2c(=O)n3cc(C)ccc3nc21	1.3	0.755
COc1ccc(NC(C)=O)cc1NC(=O)C(NC(=O)c1cc(OC)c(OC)c(OC)c1)C(C)C (stereo not given)	1.2	/
CN(CC(=O)NCCc1ccccc1)c1nnc(N2CCCC2=O)s1	7.4	-0.509
COC(=O)c1cnn2c1NCN(Cc1cccc(OC)c1)C2	1.7	-0.746
CC1Cn2c(nnc2C23CC4CC(CC(C4)C2)C3)S1 (stereo not given)	2.2	-1.42
O=C(CCCN1CCC(O)(c2cccc(C(F)(F)F)c2)CC1)c1ccc(F)cc1	/	-0.772
CCCNC(=O)c1ccc(COc2ccc(C(C)(C)C)cc2)o1	0.2	-0.398
NC(=O)c1cc2c(ccc3ccccc32)o1	4.9	-0.135
CCOC(=O)NN=C1CCC(c2ccccc2)CC1 (stereo not given)	2.2	/

Random excerpt: 2 compounds from above, in no set order.
SMILES	BasE inh	LANA-nucl inh
CCOC(=O)NN=C1CCC(c2ccccc2)CC1 (stereo not given)	2.2	/
CCCn1c(=N)c(C(N)=O)cc2c(=O)n3cc(C)ccc3nc21	1.3	0.755
